# Source: PubChem BioAssay (National Center for Advancing Translational Sciences (NCATS))
# D2 agonist – activates the human D2 dopamine receptor. P14416. DiscoveRx PathHunter D2 beta-arrestin, luminescence, 90 min; 100% = 57 uM dopamine signal. activation, % (test concentration not listed). 360,000 compounds, 0.084% hits. AID 624465; in the data active = activation above about 40%; inconclusive = about 15% to 40%; inactive = below about 15%; also: compound concentration not given in the record; the text of the record calls up to 30% inactive
#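 DiscoveRx PathHunter D2 beta-arrestin cells (2,100/well) attached overnight, then compound-stimulated 90 min at 37 C in HBSS/10 mM HEPES/0.1% Tween-20 buffer; beta-galactosidase complementation read by luminescence after 1 h at ambient temperature. Dopamine 57 uM final (EC100) as control.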
# gsp ag – activates gsp, the McCune-Albright syndrome mutation; 340,000 compounds, 0.13% hits; AID 624287; Potency, µM (doses to about 76.9 µM), for the others: at the highest dose activation (cAMP increase), usual class: activators; gsp mutant cells, cAMP HTRF, 30 min; control for the full effect not named in the record; active = well fitted activation curve with a large enough effect; inconclusive = small, poorly fitted or top-dose-only effect, or another doubt; inactive = no such curve, though single readings can be large or run the other way; cell line not stated here;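 also: phosphodiesterase inhibitor Ro 20-1724 added with compounds to block cAMP breakdown; potency is read from the fitted curve at half-maximal effect; nearly all actives have a fitted effect of over 60% in size; about a fifth of the inactives were tested at one dose only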
#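 Cells in DMEM/10% FBS with G418 were pretreated with compounds in DMSO plus […] (300 uM stock) for 30 min at 37C. cAMP was measured by HTRF (cAMP-d2 plus anti-cAMP antibody-K) after 30 min at room temperature.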
# Six1-Eya2 blk – Six1/Eya2 interaction inhibition. AID 651725. activity change, % (concentration not given with the values). 360,000 compounds, 0.56% hits. AlphaScreen GST-Six1/His-Eya2 binding, biochemical; active compounds read low; control for the full effect not named in the record; in the data active = activity change below about -65%; inconclusive = about -30% to -65%; inactive = above about -30%; also: % is scaled to controls: 0 for no effect and ±100 for the full control effect
# Target sequence (O00167 whole entry, looked up): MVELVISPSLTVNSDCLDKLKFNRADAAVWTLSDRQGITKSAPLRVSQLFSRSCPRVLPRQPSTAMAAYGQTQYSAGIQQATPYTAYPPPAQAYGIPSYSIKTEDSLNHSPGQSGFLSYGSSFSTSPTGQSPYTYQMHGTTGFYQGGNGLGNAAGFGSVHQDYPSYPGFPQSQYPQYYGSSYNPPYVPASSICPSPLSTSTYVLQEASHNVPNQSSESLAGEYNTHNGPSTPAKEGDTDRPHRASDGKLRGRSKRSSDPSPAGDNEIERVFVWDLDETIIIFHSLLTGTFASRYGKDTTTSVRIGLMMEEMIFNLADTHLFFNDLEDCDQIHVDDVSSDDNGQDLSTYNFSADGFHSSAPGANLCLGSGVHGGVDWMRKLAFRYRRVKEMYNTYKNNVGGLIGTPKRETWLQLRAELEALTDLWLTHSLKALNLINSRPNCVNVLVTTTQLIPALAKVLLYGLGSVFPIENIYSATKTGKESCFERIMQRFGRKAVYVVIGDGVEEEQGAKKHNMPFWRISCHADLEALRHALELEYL
# Target sequence (Q15475 whole entry, looked up): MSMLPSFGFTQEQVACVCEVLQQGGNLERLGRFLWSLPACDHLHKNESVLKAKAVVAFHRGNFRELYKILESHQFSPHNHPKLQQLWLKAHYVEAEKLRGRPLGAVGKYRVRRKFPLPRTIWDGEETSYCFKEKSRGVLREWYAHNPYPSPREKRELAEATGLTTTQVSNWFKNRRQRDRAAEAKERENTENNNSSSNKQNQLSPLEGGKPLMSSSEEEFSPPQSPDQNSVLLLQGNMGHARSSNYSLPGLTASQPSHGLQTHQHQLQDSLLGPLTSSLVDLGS
#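 AlphaScreen luminescence read after one hour at 37 °C in darkness. Pin-transferred compounds met GST-Six1 and His-Eya2 protein (5X stock 250 nM/500 nM) plus glutathione donor and Ni-chelate acceptor beads (5X, 50 ug/mL).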
# CtBP-E1A blk – blocks the CtBP interaction with E1A; activity change, % (concentration not given with the values); AlphaScreen GST-E1A/His-CtBP binding, 1536-well; active compounds read low; control for the full effect not named in the record; 340,000 compounds, 0.49% hits; in the data active means activity change below about -65%; inconclusive means about -30% to -65%; inactive means above about -30%; also: % is scaled to controls: 0 for no effect and ±100 for the full control effect
#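 In 5 uL wells, 23 nL compound meets equimolar GST-E1A and His-CtBP (5X stock 125 nM each) for 2 h, 37 °C. Beads (5X, 50 ug/mL) then 1 h, 37 °C, dark.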
# D2 PAM – positive allosteric modulators of human D2 dopamine receptor | P14416 | DiscoveRx D2 beta-arrestin cells, luminescence, 90 min; 100% = 57 uM dopamine signal | potentiation, % (test concentration not listed) | AID 624464 | 360,000 compounds, 0.23% hits; active = potentiation of 50% or more; inconclusive = 30% to 50%; inactive = 30% or less;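 also: compound concentration not given in the record; tested on top of an EC20 dose of dopamine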
#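 PathHunter D2 cells, attached overnight at 37 deg C, received compound in DMSO plus dopamine at EC20 (50 nM final) for 90 min at 37 deg C. Beta-arrestin recruitment was read as luminescence after 1 h with detection reagent at ambient temperature.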
# gsp antag – gsp mutant antagonism. gsp-mutant cells, cAMP HTRF, 30 min; control for the full effect not named in the record. Potency, µM (titrated, usually from 76.9 µM), inactives show at the top dose activity change, negative = inhibition, usual class: inhibitors. 340,000 compounds, 0.4% hits. AID 624288; active = falling curve of any shape with a large fitted effect; inconclusive = falling curve, mostly with a smaller effect; inactive = flat or rising curve; cell line not stated here;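 also: intracellular cAMP measured with PDE inhibitor Ro 20-1724 present during compound exposure; potency is read from the fitted curve at half-maximal effect; % is scaled to controls: 0 for no effect and ±100 for the full control effect; nearly all actives have a fitted effect of over 65% in size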
#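 Cells in G418 medium, seeded 16-24 h, 37C; buffer exchange to DPBS + 1 mM CaCl2, 0.5 mM MgCl2, 0.05% BSA; cpds in DMSO + […] (300 uM stock), 30 min 37C; HTRF cAMP detection.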
# * hit, by the source's call; ? = inconclusive; . = not tested or not shown; [ ] = dose if it differs, or a comment. Rows are unselected; 1.4% or so of the library scored in one or more.
# Short forms – A = D2 agonist; B = gsp ag; C = Six1-Eya2 blk; D = CtBP-E1A blk; E = D2 PAM; F = gsp antag
CCOc1ccc(N2CC(C(=O)Nc3ccc(S(=O)(=O)Nc4ncccn4)cc3)CC2=O)cc1 (stereo not drawn)
  A: 0.5; B: 7%; C: 8; D: -4; E: -3; F: 5%
O=[N+]([O-])c1cccc(-c2nnc(C3CC3)o2)c1
  A: -9.8; B: 7%[15.4 µM]; C: 2; D: -2; E: -1; F: -1%
CCOC(=O)CN1C(=O)N[C@@H](CCc2ccccc2)C(C(C)=O)=C1C
  A: -0.8; B: -42%[inhibitor]; C: -2; D: 5; E: 0; F: -7%
COc1cccc(-c2cc3nc(NCCN4CCCC4)n(C)c(=O)c3s2)c1
  A: 3.1; B: .; C: 1; D: -23; E: 8; F: .
O=C(NN1C(=O)c2ccccc2C1=O)C1C2CCCCC21 (stereo not drawn)
  A: -2.3; B: 3%; C: 6; D: -7; E: -7; F: -10%
COc1ccc(S(=O)(=O)NC2CCN(Cc3ccccc3)CC2)cc1NC(C)=O
  A: 6.8; B: -10%; C: -1; D: 1; E: -4; F: 9%
Cc1cc(-c2ccccc2)nc(N(C)N)c1S(C)(=O)=O
  A: -0.7; B: 4%; C: 2; D: 3; E: -2; F: -4%
CC(NO)/C(=N\O)c1cccs1 (stereo not drawn)
  A: -2.0; B: 3%; C: 1; D: 11; E: -2; F: -1%
Cc1oc(-c2cc(Cl)cc(Cl)c2)cc1C(=O)NCCc1ccccc1
  A: -1.2; B: -2%; C: 21; D: 17; E: -10; F: -6%
COc1ccc2c(-c3ccccc3)cc(SCC(N)=O)nc2c1
  A: -2.0; B: ?; C: -2; D: -2; E: -4; F: -26%

# Going on with the list:
# Short forms – A = D2 agonist; B = gsp ag; C = Six1-Eya2 blk; D = CtBP-E1A blk; E = D2 PAM; F = gsp antag
CCCn1c(SCC(=O)N2CCCc3ccccc32)nc2c1c(=O)n(C)c(=O)n2C
  A: -4.0; B: 25%; C: -3; D: -1; E: 7; F: -3%
O=C(CC(Nc1cccc(Cl)c1Cl)C(=O)OCC(=O)c1cccs1)c1ccccc1 (stereo not drawn)
  A: -1.9; B: 4%; C: 3; D: 3; E: -26; F: -6%
COc1ccccc1C(=O)NCCN1CCCC1
  A: -3.0; B: -23%; C: 6; D: 0; E: -20; F: .
O=C(NCc1ccc2c(c1)OCO2)c1ccc(C2SCC(=O)N2Cc2ccco2)cc1 (stereo not drawn)
  A: 0.9; B: -21%; C: -10; D: -12; E: 16; F: -10%
COc1ccccc1N1CC(C(=O)Nc2cccc(C(=O)O)c2)CC1=O (stereo not drawn)
  A: -0.1; B: -28%; C: 10; D: -3; E: 2; F: 4%
CSc1n[nH]c(-c2sccc2OCc2ccc(C)cc2)n1
  A: -4.2; B: 29%; C: -7; D: 2; E: -7; F: -23%
O=C(NC(=S)N(CCO)Cc1ccccc1)c1ccc(F)cc1Cl
  A: -1.1; B: ?; C: 4; D: 6; E: -7; F: -8%
CN1CCN(c2ccc(NC(=O)c3cc(Cl)c4c(c3)OCCO4)cc2)CC1
  A: -1.3; B: -23%[15.4 µM]; C: -9; D: -9; E: -12; F: -17%
CCC1(C)Cc2c(sc3nnn(CC(=O)Nc4ccccc4)c(=O)c23)CO1 (stereo not drawn)
  A: 0.2; B: -70%[inhibitor]; C: -2; D: 0; E: -14; F: -17%
COc1ccc(-c2csc(N(CCCN(C)C)C(=O)c3ccccc3F)n2)cc1
  A: 1.6; B: ?; C: -3; D: .; E: -62; F: 7%

# Going on with the list:
# Short forms – A = D2 agonist; B = gsp ag; C = Six1-Eya2 blk; D = CtBP-E1A blk; E = D2 PAM; F = gsp antag
S=C(NCCCCNC(=S)NCc1ccccc1)NCc1ccccc1
  A: -5.6; B: ?; C: -13; D: -22; E: -6; F: 10%
Cc1ccccc1C(=O)N1CCCC(N2CCN(Cc3ccc4c(c3)OCO4)CC2)C1 (stereo not drawn)
  A: -2.7; B: ?; C: -4; D: 3; E: -24; F: 5%
COc1ccc(CC2(CO)COc3ccccc3C2=O)cc1 (stereo not drawn)
  A: -3.5; B: -12%[15.4 µM]; C: -19; D: 9; E: -6; F: 11%
CCc1c(C)sc(NC(=O)C2CC2)c1C(=O)OC(C)C
  A: -1.4; B: ?; C: 0; D: -2; E: -10; F: -4%
CCN1CCN(C(CNS(=O)(=O)c2ccccc2)c2cccnc2)CC1 (stereo not drawn)
  A: 0.1; B: -47%[inhibitor]; C: 10; D: 0; E: -18; F: -2%
Cc1ccc(CC(NC(=O)c2ccccc2)C(=O)NC(CC(C)C)C(=O)O)cc1 (stereo not drawn)
  A: 1.0; B: 17%[15.4 µM]; C: 5; D: 13; E: -2; F: 2%
Cc1nn(C)c(C)c1S(=O)(=O)N(CC(=O)NCc1cccs1)c1ccc(C(C)C)cc1
  A: -0.6; B: -14%; C: 1; D: 2; E: -5; F: -2%
CCc1ccc(NC(=O)C(=O)NCCN2CCN(C(=O)c3ccco3)CC2)cc1
  A: ?; B: -7%; C: 9; D: -2; E: 20; F: -1%
Cc1ccc(N=Nc2c(C)[nH]n(-c3ccccc3)c2=O)cc1Br
  A: 1.3; B: -3%; C: -4; D: .; E: 5; F: 4%
Cc1n[nH]c(=S)n(/N=C/c2cccs2)c1=O
  A: 1.0; B: 0%[15.4 µM]; C: ?; D: -72*; E: -3; F: 9%

# (further entries)
# Short forms – A = D2 agonist; B = gsp ag; C = Six1-Eya2 blk; D = CtBP-E1A blk; E = D2 PAM; F = gsp antag
CCN(CC)S(=O)(=O)c1cc(NC(=O)C(C)N2CCN(Cc3ccc4c(c3)OCO4)CC2)ccc1C (stereo not drawn)
  A: -4.8; B: ?; C: -5; D: 19; E: -53; F: -6%
CN1CCN(/C=C2\SC(=S)NC2=O)CC1
  A: -7.4; B: -51%[inhibitor]; C: 0; D: -9; E: -35; F: 8%
O=C(Nc1sc2c(c1C(=O)NCc1cccnc1)CCCC2)c1ccco1
  A: -2.0; B: -4%; C: 17; D: 32; E: 1; F: -12%
CCCCc1ccc(NC(=S)N2CCCC(CO)C2)cc1 (stereo not drawn)
  A: 0.7; B: -4%; C: 4; D: 7; E: -27; F: 9%
COc1cc(/C=C/c2noc(-c3ccccc3O)n2)ccc1OC(C)=O
  A: -2.8; B: 7%; C: 4; D: -10; E: -7; F: 7%
Oc1ccccc1CN1CCC(C(O)(c2ccccc2)c2ccccc2)CC1
  A: -0.7; B: -23%; C: 4; D: -4; E: -27; F: 27%
CCCC(C(=O)NCc1ccco1)N(CC1CCCO1)C(=O)CNS(=O)(=O)c1ccc(F)cc1 (stereo not drawn)
  A: 1.2; B: 20%; C: 0; D: -2; E: -4; F: -6%
CC(=O)c1sc(NC(=O)c2ccc(C)cc2)nc1C
  A: -1.0; B: -1%; C: 0; D: 2; E: 16; F: 4%
CCCC(=O)Nc1ccc(C(=O)NCC(=O)OCC)cc1
  A: 0.4; B: -54%; C: 4; D: 4; E: -3; F: 18%
CC1CC(C)(C)NC(=S)N1CC(=O)N1CCN(Cc2ccc3c(c2)OCO3)CC1 (stereo not drawn)
  A: -3.5; B: -5%[15.4 µM]; C: 12; D: 3; E: -5; F: 2%

# Remaining list, next part:
# Short forms – A = D2 agonist; B = gsp ag; C = Six1-Eya2 blk; D = CtBP-E1A blk; E = D2 PAM; F = gsp antag
COc1ccc(C2C(=O)N(C3CCCCC3)CC(=O)N2C2CCCC2)cc1 (stereo not drawn)
  A: -2.5; B: 15%; C: -5; D: -18; E: -9; F: 0%
NC(=O)c1cccnc1Oc1ccccc1
  A: -0.7; B: -3%[15.4 µM]; C: 10; D: 1; E: 1; F: 6%
O=C(OC1CCOC1=O)c1ccccc1C(=O)c1ccc(Cl)c([N+](=O)[O-])c1 (stereo not drawn)
  A: 3.1; B: -23%; C: -2; D: -2; E: 1; F: -19%
COc1ccc(CNCCS(=O)(=O)NC2CCCC2)cc1
  A: -3.7; B: .; C: 3; D: -1; E: -20; F: 1%
N#Cc1cc(C(=O)c2ccccc2O)cn(-c2ccc(Cl)cc2)c1=O
  A: ?; B: -1%; C: -15; D: 2; E: ?; F: -16%
COc1ccccc1C(=O)Nc1nnc(S(=O)(=O)N2CCN(c3ccc(F)cc3)CC2)s1
  A: -0.8; B: ?; C: -1; D: 0; E: 0; F: -7%
COc1cc(/C=N/NC(=O)c2cc(-c3ccccc3OC(C)C)nc3ccccc23)ccc1O
  A: -0.6; B: -9%; C: ?; D: ?; E: -6; F: -17%
CC(C)c1ccc(S(=O)(=O)N2CCC(C(=O)NCC3(N(C)C)CCCCC3)CC2)cc1
  A: 0.8; B: 20%; C: 3; D: 3; E: -8; F: 1%
C/C(=N\NC(=O)CN(c1ccccc1)S(C)(=O)=O)c1ccccc1O
  A: -0.1; B: -2%; C: -7; D: -17; E: -17; F: -6%
O=S(=O)(Cc1cc(Cl)nc(-c2cccnc2)n1)c1ccccc1
  A: 0.5; B: -18%; C: -1; D: -1; E: 12; F: -20%
CCOC(=O)c1c(C)[nH]c(C(=O)OCC(=O)NCc2ccccc2)c1C
  A: -2.6; B: -3%; C: -1; D: .; E: -11; F: -8%

# 8 structures from above, arranged by molar mass, high to low:
# Short forms – A = D2 agonist; B = gsp ag; C = Six1-Eya2 blk; D = CtBP-E1A blk; E = D2 PAM; F = gsp antag
COc1ccccc1C(=O)Nc1nnc(S(=O)(=O)N2CCN(c3ccc(F)cc3)CC2)s1
  A: -0.8; B: ?; C: -1; D: 0; E: 0; F: -7%
COc1cc(/C=N/NC(=O)c2cc(-c3ccccc3OC(C)C)nc3ccccc23)ccc1O
  A: -0.6; B: -9%; C: ?; D: ?; E: -6; F: -17%
O=C(OC1CCOC1=O)c1ccccc1C(=O)c1ccc(Cl)c([N+](=O)[O-])c1 (stereo not drawn)
  A: 3.1; B: -23%; C: -2; D: -2; E: 1; F: -19%
COc1ccc(C2C(=O)N(C3CCCCC3)CC(=O)N2C2CCCC2)cc1 (stereo not drawn)
  A: -2.5; B: 15%; C: -5; D: -18; E: -9; F: 0%
C/C(=N\NC(=O)CN(c1ccccc1)S(C)(=O)=O)c1ccccc1O
  A: -0.1; B: -2%; C: -7; D: -17; E: -17; F: -6%
CCOC(=O)c1c(C)[nH]c(C(=O)OCC(=O)NCc2ccccc2)c1C
  A: -2.6; B: -3%; C: -1; D: .; E: -11; F: -8%
O=S(=O)(Cc1cc(Cl)nc(-c2cccnc2)n1)c1ccccc1
  A: 0.5; B: -18%; C: -1; D: -1; E: 12; F: -20%
NC(=O)c1cccnc1Oc1ccccc1
  A: -0.7; B: -3%[15.4 µM]; C: 10; D: 1; E: 1; F: 6%
